CBX7 AlphaScr: CBX7 inhibition, primary AlphaScreen; O95931; AlphaScreen His6-CBX7 / biotin-H3K27me3 peptide binding; hits give low values; normalised signal (fraction of DMSO) (concentration not given with the values); 66,000 compounds, 1.1% hits; AID 1224903; in the data active = normalised signal below about 0.5;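 also: 100 nL library stock added to about 20 µL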
Target sequence (O95931 whole entry, looked up): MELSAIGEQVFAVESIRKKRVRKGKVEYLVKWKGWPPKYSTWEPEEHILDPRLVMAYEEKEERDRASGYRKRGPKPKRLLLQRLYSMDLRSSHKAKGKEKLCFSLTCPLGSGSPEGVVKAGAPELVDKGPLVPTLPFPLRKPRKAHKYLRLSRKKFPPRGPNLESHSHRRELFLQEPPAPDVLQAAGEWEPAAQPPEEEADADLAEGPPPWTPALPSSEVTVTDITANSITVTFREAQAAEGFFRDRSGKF
CBX7 AlphaScr z-score: recorded beside CBX7 AlphaScr, whose call it bears; z-score; measured here: z-score of CBX7 signal; some inactives read as strong as hits; reference of the scale not given here;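 same signal on another scale; lower means less binding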
The depositor's hits bear a star; & = joins results of further samples. An excerpt; count on the stated rates, not on these rows.

Compound	CBX7 AlphaScr	CBX7 AlphaScr z-score
N=c1n(CCO)c2ccccc2n1Cc1ccccc1	1.1	1.9
c1ccc(COc2ccc3[nH]cc(CCN(Cc4ccccc4)Cc4ccccc4)c3c2)cc1	0.75	-2.7
CCn1c(SCC(=O)Nc2ccc(Cl)cc2C(=O)c2ccccc2)nnc1-c1ccncc1	0.69	-3
CCN1C(=O)c2ccccc2Sc2ccc(C(=O)N3CCC4(CC3)OCCO4)cc21	0.86	-1.7
c1cncc(CNCCc2ccc3c(c2)OCO3)c1	0.62	-3
CC1N=C(c2ccccc2Cl)c2cc(Br)ccc2NC1=O (centres undefined)	0.86	-2.1
CCOc1ccc(NC(=O)CN2C(=O)CN=C(c3ccccc3)c3ccccc32)cc1	1.1	0.61
Oc1ccc(CC2(N3CCCC3)CCCCC2)cc1	1	0.099
COc1ncccc1C(=O)NCC(CC(=O)O)c1ccccc1 (centres undefined)	1	0.71
CCC(C)NC(=O)CCc1nc(C2=CCN(C)CC2)no1 (centres undefined)	1	0.74
CCc1ccc(NC(=O)C2c3cc(OC)c(OC)cc3C(=O)N3CCCCC23)cc1 (centres undefined)	1.1	2.4
O=C(CN1C(=O)CN=C(c2ccccc2)c2ccccc21)NCc1cccc(Cl)c1	1	0.64
CCOC(=O)C1(c2ccccc2)CCN(CCC(=O)Nc2ccccc2)CC1	1.1	1.9
COc1ccc(C2SCC(=O)Nc3c2c(=O)[nH]n3C2CCCCC2)cc1 (centres undefined)	0.95	-1.3
CC1N=C(c2ccccc2)c2ccccc2N(CC(=O)NCC2CCCO2)C1=O (centres undefined)	1.1	1.1
O=C(Nc1ccc(Br)cc1C(=O)c1ccccc1Cl)c1ccc(N2C(=O)CCC2=O)cc1	0.79	-0.92
CC(C)n1[nH]c(=O)c2c1NC(=O)CSC2c1ccc(OCc2ccccc2)cc1 (centres undefined)	1.1	2.7
O=C(Nc1cccc(Cl)c1)N1C[C@H]2C[C@@H](C1)c1cccc(=O)n1C2	1	0.6
O=C(Nc1ccc(Cl)cc1C(=O)c1ccccc1)c1ccccc1Br	0.94	-1.6
Brc1cccc(C2CC(c3cccnc3)Nc3ncnn32)c1 (centres undefined)	1	0.24

Continuation.
Compound	CBX7 AlphaScr	CBX7 AlphaScr z-score
O=c1c2ccccc2nc(C(F)(F)F)n1-c1ccc(Br)cc1	1	0.53
O=C(CN1CCOCC1)Nc1ccc(Br)cc1C(=O)c1ccccc1	0.97	-0.95
O=c1c2ccccc2nc(/C=C\c2ccc(F)cc2)n1-c1ccccc1F	1	-0.0039
COc1ccc(-n2c(/C=C/c3cccnc3)nc3ccccc3c2=O)cc1Cl	1.1	1.3
COc1cccc(-n2c(/C=C/c3ccccc3)nc3ccccc3c2=O)c1	0.91	-2.1
Cc1ccc(F)cc1-n1c(/C=C/c2ccccc2)nc2ccccc2c1=O	0.88	-1.4
COc1ccc(-n2c(/C=C/c3c[nH]c4ccccc34)nc3ccccc3c2=O)cc1	1	0.92
CCOC(=O)c1c(CSc2ccccc2)n(Cc2ccccc2)c2ccc(O)cc12	0.89	-1.1
Cc1ccc(NC(=O)CN2C(=O)CN=C(c3ccccc3Cl)c3cc(Cl)ccc32)cc1	0.87	-3.5
COc1cc(CNCCc2ccc(F)cc2)cc2c1OCO2	1.3	2.7
O=C(Nc1sc2c(c1C(=O)N1CCOCC1)CCCC2)c1ccccc1Cl	1	0.027
CC(=O)N1CC2C(Nc3ccccc31)C1CCN2CC1 (centres undefined)	0.85	-1.8
CC1N=C(c2ccccc2)c2cc(Cl)ccc2N(CC(=O)NCCC2=CCCCC2)C1=O (centres undefined)	0.91	-1.7
CCC1=Nc2cc(C(=O)N3CCC4(CC3)OCCO4)ccc2Sc2ccccc21	1.3	0.76
COc1ccccc1NC(=O)c1cccc(S(=O)(=O)N2CCCCC2)c1	0.91	-0.61
COc1ccccc1/C=C/c1nc2ccccc2c(=O)n1-c1ccc(F)c(Cl)c1	1.1	1.2
COc1cccc(/C=C/c2nc3ccccc3c(=O)n2-c2cccc(Cl)c2)c1OC	1	0.18
CCOC(=O)c1c(C)n(C2CCCCC2)c2cc(Br)c(OC(C)=O)cc12	0.99	-0.1
COc1ccc(OC)c(/C=C/c2nc3ccccc3c(=O)n2-c2ccc(C)cc2)c1	1.4	12
CC(C)(C)c1ccccc1OCC(=O)Nc1ccc(Cl)cc1C(=O)c1ccccc1	1	-0.0039

New compounds follow.
Compound	CBX7 AlphaScr	CBX7 AlphaScr z-score
CCCCNC(=O)CN1C(=O)CN=C(c2ccccc2)c2ccccc21	0.99	-0.26
Cc1ccc(-n2c(/C=C/c3ccccc3F)nc3ccccc3c2=O)cc1C	0.97	-0.91
Cc1nnc2n1-c1ccc(Br)cc1C(c1ccccc1Cl)=NC2	1	0.037
Cc1ccc(NC(=O)CN2C(=O)C(C)N=C(c3ccccc3)c3ccccc32)cc1 (centres undefined)	0.97	-1.6
Cc1ccc(-n2c(/C=C\c3ccc(F)cc3)nc3ccccc3c2=O)cc1F	1	0.79
CC1N=C(c2ccccc2)c2cc(Cl)ccc2N(CC(=O)NCCc2ccccc2)C1=O (centres undefined)	0.75	-3.6
CCC(C(=O)Nc1cccc(Cl)c1)N1C(=O)CN=C(c2ccccc2)c2cc(Cl)ccc21 (centres undefined)	0.81	-2.8
C=CCN1C(=O)c2ccccc2Sc2ccc(C(=O)N3CCC4(CC3)OCCO4)cc21	1	0.8
CCOC(=O)C1(c2ccccc2)CCN(CCC(=O)Nc2ccc(OC(F)(F)F)cc2)CC1	0.9	-1.6
CCCCN1CCCC1C(O)(c1ccccc1)c1ccccc1 (centres undefined)	1&1.1	0.32&2.5
CC(C)c1ccc(OCC(=O)Nc2ccc(Cl)cc2C(=O)c2ccccc2)cc1	0.95	-1.4
O=C(Cn1nc(Cc2cccnc2)c2ccccc2c1=O)N1CCC2(CC1)OCCO2	1.1	1.2
O=C(CN1CC(c2ccccc2)CC1=O)Nc1ccccc1 (centres undefined)	1.2	1.9
O=C(Nc1cccc(Cl)c1)C1c2ccccc2C(=O)N2CCCCC12 (centres undefined)	1.2	1.5
COc1cccc(-n2c(Cc3ccccc3)nc3ccccc3c2=O)c1	1	-0.0034
C=CCN1C(=O)CSc2ccc(C(=O)N3CCC4(CC3)OCCO4)cc21	0.97	-0.37
COc1cc(NC(=O)CN2C(=O)C(C)N=C(c3ccccc3)c3ccccc32)cc(OC)c1OC (centres undefined)	0.85	-2.7
c1ccc(COc2ccc(CC3CC4CCN3CC4)cc2)cc1 (centres undefined)	1.1	0.4
O=c1cccc2n1CC1CC2CN(c2ccc3nnc(-c4ccccc4)n3n2)C1 (centres undefined)	0.76	-3.4
O=c1c2ccccc2nc(-c2cccs2)n1-c1ccccn1	0.79	-2.4

Two compounds drawn at random from the list so far:
Compound	CBX7 AlphaScr	CBX7 AlphaScr z-score
COc1ccccc1/C=C/c1nc2ccccc2c(=O)n1-c1ccc(F)c(Cl)c1	1.1	1.2
CC1N=C(c2ccccc2)c2cc(Cl)ccc2N(CC(=O)NCCC2=CCCCC2)C1=O (centres undefined)	0.91	-1.7

Next part.
Compound	CBX7 AlphaScr	CBX7 AlphaScr z-score
CC(C)c1ccc(NC(=O)CN2C(=O)CN=C(c3ccccc3)c3ccccc32)cc1	1.1	0.77
COc1ccccc1CN1CCN(Cc2ccccc2F)CC1	0.81	-2.3
COc1ccc2c(c1)c(C(=O)N1CCCC1)c(C)n2Cc1ccccc1	0.99&0.93	-0.092&-0.93
CCN(CC)CCNC(=O)C(O)(c1ccccc1)c1ccccc1	1.5	1
O=C(O)c1[nH]c2ccc(Cl)cc2c1CC(=O)N1CCC2(CC1)OCCO2	1.2	2
COc1ccc2[nH]c(C)c(CCNCc3cccc(F)c3)c2c1	0.51	-8.9
O=C(CN1C(=O)CN=C(c2ccccc2)c2cc(Cl)ccc21)Nc1ccc(F)cc1F	1.1	0.86
COc1ccc(OC)c(C2=NOC(C(=O)N3CCC4(CC3)OCCO4)C2)c1 (centres undefined)	1.1	2
CCOC(=O)c1c(C)n(CCN2CCN(C)CC2)c2ccc(OC)cc12	0.95	-0.83
O=C(Nc1ccc(Br)cc1C(=O)c1ccccc1Cl)c1ccc(F)c(F)c1	0.95	-0.96
COc1cc2c(cc1OC)C(C(=O)N1CCN(c3cc(Cl)ccc3C)CC1)C1CCCCN1C2=O (centres undefined)	1.1	0.58
NCCc1c[nH]c2ccc(OCc3ccccc3)cc12	1.1	1.3
COCCNC(=O)CN1C(=O)C(C)N=C(c2ccccc2)c2ccccc21 (centres undefined)	1.1	1.3
Cc1nn(C)c2c1C(c1cccnc1)SCC(=O)N2 (centres undefined)	1.1	0.4
CCN1C[C@]2(COC)CC[C@H](O)[C@@]34C5C[C@@H]6[C@@H](OC)C[C@@](O)(C5[C@H]6OC(C)=O)[C@@H](CC23)[C@@H]14 (some centres undefined)	1	0.023
O=C(c1ccccc1)c1cc(Cl)ccc1NC(=O)c1cc2ccccc2oc1=O	0.94	-1.3
COc1ccc(Cl)cc1-n1c(/C=C\c2ccc(F)c(F)c2)nc2ccccc2c1=O	1	0.38
O=C(CC1CN2CCC1C(c1ccccc1)C2)c1ccccc1 (centres undefined)	1.4	1
CC1N=C(c2ccccc2F)c2cc(Cl)ccc2N(Cc2c(F)cccc2Cl)C1=O (centres undefined)	0.92	-1.3
Cc1ccc(-n2c(/C=C/c3ccccc3O)nc3ccccc3c2=O)cc1	1.2	2.7

Continuation:
Compound	CBX7 AlphaScr	CBX7 AlphaScr z-score
CN(C(=O)CN1C(=O)CN=C(c2ccccc2F)c2cc(Cl)ccc21)c1ccccc1	0.87	-2.1
Cc1ccccc1CN1C(=O)CN=C(c2ccccc2)c2cc(Cl)ccc21	1.1	2.6
O=C(c1ccccc1)c1cc(Br)ccc1NC(=O)c1c(F)cccc1F	1.1	0.41
CC12CCC(=O)C=C1CCC1C2CCC2(C)C1CCC2(C)O (centres undefined)	0.93	-0.81
COc1ccc(C(=O)c2nc3ccccc3n2C(C)C)cc1OC	1	2
N#Cc1ccc(C(=O)Nc2cc(Br)ccc2C(=O)c2ccccc2Cl)cc1	0.99	-0.23
CCc1nc(CNCCc2c(C)[nH]c3ccc(OC)cc23)c(C)[nH]1	1.2	0.38
O=C(CN1C(=O)CN=C(c2ccccc2)c2cc(Br)ccc21)NCCC1=CCCCC1	0.73	-2.2
CCC(C(=O)Nc1cccc(Cl)c1)N1C(=O)CN=C(c2ccccc2)c2ccccc21 (centres undefined)	0.81	-2.7
CC(C)n1[nH]c(=O)c2c1NC(=O)CSC2c1ccc(Cl)cc1 (centres undefined)	1	0.38
COC(=O)c1ccc2c(c1)N=C(Cl)c1ccccc1S2	1	0.52
CCOC(=O)C1(c2ccccc2)CCN(C(=O)c2c(C)oc3cc(Br)c(OC)cc23)CC1	0.97	-1.3
CC1N=C(c2ccccc2)c2ccccc2N(Cc2ccccc2F)C1=O (centres undefined)	0.86	-3.7
CC1(C)C(C(=O)Nc2nc(-c3ccc(F)cc3F)cs2)C1(C)C	1.2	0.24
Cc1nc2ncnn2c(C)c1CCC(=O)N1CCC2(CC1)OCCO2	1.1	2
CCCCCc1cc(O)c(C2CC3CCC(C2)N3C)c(O)c1 (centres undefined)	0.88	-2.4
O=C(CN1C(=O)CN=C(c2ccccc2)c2cc(Cl)ccc21)NCc1cccc(Cl)c1	0.96	-2.1
Cc1ccc(OCCCn2cc(C(=O)c3ccccc3)c3ccccc32)cc1	1	0.16
Cc1ccc(C)c(CN2C(=O)C(C)N=C(c3ccccc3)c3ccccc32)c1 (centres undefined)	0.98	-0.52
CCCCNC(=O)CN1C(=O)CN=C(c2ccccc2)c2cc(Cl)ccc21	1	0.94

A draw from above in order of length of the SMILES, largest number first.
Compound	CBX7 AlphaScr	CBX7 AlphaScr z-score
CCC(C(=O)Nc1cccc(Cl)c1)N1C(=O)CN=C(c2ccccc2)c2cc(Cl)ccc21 (centres undefined)	0.81	-2.8
CC(C)n1[nH]c(=O)c2c1NC(=O)CSC2c1ccc(OCc2ccccc2)cc1 (centres undefined)	1.1	2.7
COc1ccccc1/C=C/c1nc2ccccc2c(=O)n1-c1ccc(F)c(Cl)c1	1.1	1.2
CC(C)c1ccc(OCC(=O)Nc2ccc(Cl)cc2C(=O)c2ccccc2)cc1	0.95	-1.4
Cc1ccc(-n2c(/C=C\c3ccc(F)cc3)nc3ccccc3c2=O)cc1F	1	0.79
CC1N=C(c2ccccc2)c2ccccc2N(CC(=O)NCC2CCCO2)C1=O (centres undefined)	1.1	1.1
O=C(Nc1sc2c(c1C(=O)N1CCOCC1)CCCC2)c1ccccc1Cl	1	0.027

New compounds follow
Compound	CBX7 AlphaScr	CBX7 AlphaScr z-score
CCOC(=O)c1c(C)n(Cc2ccccc2)c2cc(Br)c(O)c(CN3CCCCC3)c12	0.71	-7.2
Cc1ccc(-n2c(/C=C/c3cccnc3)nc3ccccc3c2=O)cc1	1&0.88	0.18&-0.5
CCC(C)n1[nH]c(=O)c2c1NC(=O)CSC2c1ccc(OC(C)C)cc1 (centres undefined)	0.96	-0.48
O=c1c2ccccc2nc(/C=C\c2ccc(F)c(F)c2)n1-c1ccccc1F	1.1	0.12
CCOc1ccccc1NC(=O)C(CC)N1C(=O)C(C)N=C(c2ccccc2)c2ccccc21 (centres undefined)	1.2	1.4
Cc1ccc2c(c1)C1CN(C)CCC1N2C(=O)C1CCC1 (centres undefined)	1.1	1.4
CCOc1ccc(CN(CCc2ccc3c(c2)OCO3)Cc2ccccc2)cc1	1.1	1.9
O=C(Cc1ccc(NC2=NC3CS(=O)(=O)CC3S2)cc1)N1CCN(Cc2ccccc2)CC1 (centres undefined)	1	0.3
O=C(CN1C(=O)CN=C(c2ccccc2)c2ccccc21)NCCC1=CCCCC1	1.1	0.94
CC(=O)OC1(c2ccccc2)CCN(C)C2CCCC21 (centres undefined)	1	0.29
Cc1cc(OCCCn2cc(C(=O)c3ccccc3)c3ccccc32)ccc1Cl	1	0.24
CCCCNC(=O)C(CC)N1C(=O)C(C)N=C(c2ccccc2)c2ccccc21 (centres undefined)	1.2	1.5

Screening data as filed in PubChem.
